Screens as filed in PubChem BioAssay.
Env fusion inh – inhibitors of HIV Env-mediated cell fusion; 360,000 compounds, 1.1% hits; HeLa-JRFL Env/CEM21 cell fusion, luciferase; inhibition, % at 12.3 µM;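 active = mean replicate inhibition score of at least 50 and every replicate individually at or above 50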;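 note: 0% = plate neutral controls and 100% = maraviroc near 300 nM; one replicate is shown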
Yeast UUG start – alters start codon recognition fidelity in yeast; S. cerevisiae UUG-firefly luciferase reporter, luminescence/redox ratio; activity score, % at 18.7 µM; 350,000 compounds, 0.13% hits;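 active = replicate mean at a twofold rise or more, about +100% in these data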;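 note: firefly luciferase made from a UUG start codon reports start codon fidelity; reporter light over untreated wells divided by growth signal over untreated wells; some hits fall short of that in this replicate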
Starred values were filed as active, the others as inactive; [ ] = dose if it differs, or a comment.

SMILES | Env fusion inh | Yeast UUG start
C[C@H]1CCCCO[C@@H](CN(C)Cc2ccc3c(c2)OCO3)[C@@H](C)CN([C@@H](C)CO)C(=O)c2cc(NC(=O)Nc3cccc4ccccc34)ccc2O1 | 50[16.7 µM] | -12
CC(C)NC(=O)N[C@@H]1CC[C@H](CC(=O)N2CCCCC2)O[C@@H]1CO | 9[16.7 µM] | -9
Cc1noc(C)c1S(=O)(=O)Nc1ccc2c(c1)CC(=O)N([C@H](C)CO)C[C@@H](C)[C@@H](CN(C)C(=O)Nc1ccc(F)cc1)O2 | -31[16.7 µM] | -5
COCC(=O)N(C)C[C@H]1Oc2cc(C3=CCCCC3)ccc2S(=O)(=O)N([C@@H](C)CO)C[C@@H]1C | 12[16.7 µM] | 18
O=C(N[C@@H]1CC[C@H](CCn2cc(C3(O)CCCC3)nn2)O[C@@H]1CO)C1CC1 | -4[16.7 µM] | -6
C[C@H]1CN([C@@H](C)CO)C(=O)c2cc(/C=C/c3ccccc3)cnc2O[C@@H]1CN(C)Cc1cccnc1 | 10[16.7 µM] | -7
O=C(C[C@@H]1C=C[C@@H](NC(=O)C2CC2)[C@H](CO)O1)NCC1CC1 | -14[16.7 µM] | -3
Cc1ccc(S(=O)(=O)N(C)C[C@@H]2OCCCC[C@H](C)Oc3ccc(NC(=O)CCCN(C)C)cc3C(=O)N([C@H](C)CO)C[C@@H]2C)cc1 | -14[16.7 µM] | -7
COc1cccc(S(=O)(=O)Nc2ccc3c(c2)OC[C@@H](C)NC[C@H](C)[C@@H](OC)CN(C)C3=O)c1 | 10[16.7 µM] | 7
CNC[C@H]1Oc2cc(C#CCC3CCCC3)ccc2S(=O)(=O)N([C@H](C)CO)C[C@@H]1C | 20[16.7 µM] | 13
N#C[C@H]1[C@@H](c2ccc(C#CC3CCCCC3)cc2)[C@@H](CO)N1C(=O)c1cccc(F)c1 | 0[16.7 µM] | -5
C[C@@H]1CCCCO[C@@H](CN(C)C(=O)c2ccncc2)[C@H](C)CN([C@@H](C)CO)C(=O)c2cc(NC(=O)NC3CCCCC3)ccc2O1 | 5[16.7 µM] | -1
C[C@H](CO)N1C[C@H](C)[C@@H](CN(C)C(=O)CC2CC2)Oc2cc(C3=CCCCC3)ccc2S1(=O)=O | -9[16.7 µM] | 17
CCCNC(=O)N[C@H]1CC[C@H](CC(=O)NC2CCCCC2)O[C@@H]1CO | 2[16.7 µM] | -9
C[C@@H]1CN([C@@H](C)CO)S(=O)(=O)c2ccc(C#CC3CCCC3)cc2O[C@@H]1CN(C)C(=O)Cc1ccncc1 | 26[16.7 µM] | 4
C[C@@H]1CCCCO[C@@H](CN(C)S(=O)(=O)c2ccccc2)[C@H](C)CN([C@H](C)CO)C(=O)c2cc(NS(=O)(=O)c3cccs3)ccc2O1 | 2[16.7 µM] | -11
O=C(C[C@H]1C[C@H]2c3cc(NC(=O)c4cccnc4)ccc3O[C@H]2[C@@H](CO)O1)NCC1CC1 | 3[16.7 µM] | 2
CC(C)NC(=O)Nc1cccc2c1O[C@@H](CN(C)S(=O)(=O)c1cn(C)cn1)[C@@H](C)CN([C@H](C)CO)C2=O | -6[16.7 µM] | -5
CC(C)C(=O)Nc1ccc2c(c1)C(=O)N(C)[C@H]1CC[C@@H](CC(=O)NCc3cccc(F)c3)O[C@H]1CO2 | 17[16.7 µM] | 15
COc1ccccc1NC(=O)N[C@@H]1C=C[C@@H](CC(=O)N[C@H](C)c2ccccc2)O[C@H]1CO | -6[16.7 µM] | -27
C[C@@H]1CN([C@@H](C)CO)C(=O)CCCn2cc(nn2)CO[C@H]1CN(C)Cc1cccc(C(F)(F)F)c1 | -15[16.7 µM] | 1
COc1cccc(NC(=O)N(C)C[C@@H]2Oc3cc(/C=C/c4ccccc4)ccc3S(=O)(=O)N([C@H](C)CO)C[C@H]2C)c1 | -17[16.7 µM] | -8
COCC(=O)Nc1ccc2c(c1)[C@@H]1C[C@@H](CC(=O)N3CCCCC3)O[C@H](CO)[C@@H]1O2 | -2[16.7 µM] | -10
O=C(C[C@H]1CC[C@H](NC(=O)Cc2cccnc2)[C@@H](CO)O1)NCc1ccc2c(c1)OCO2 | 6[16.7 µM] | -20
COCCNC(=O)C[C@@H]1C[C@@H]2c3cc(NC(=O)Nc4ccccc4F)ccc3O[C@@H]2[C@H](CO)O1 | -15[16.7 µM] | -13

Grouped by structure, the entries above with a halogen (5)
SMILES | Env fusion inh | Yeast UUG start
Cc1noc(C)c1S(=O)(=O)Nc1ccc2c(c1)CC(=O)N([C@H](C)CO)C[C@@H](C)[C@@H](CN(C)C(=O)Nc1ccc(F)cc1)O2 | -31[16.7 µM] | -5
N#C[C@H]1[C@@H](c2ccc(C#CC3CCCCC3)cc2)[C@@H](CO)N1C(=O)c1cccc(F)c1 | 0[16.7 µM] | -5
CC(C)C(=O)Nc1ccc2c(c1)C(=O)N(C)[C@H]1CC[C@@H](CC(=O)NCc3cccc(F)c3)O[C@H]1CO2 | 17[16.7 µM] | 15
C[C@@H]1CN([C@@H](C)CO)C(=O)CCCn2cc(nn2)CO[C@H]1CN(C)Cc1cccc(C(F)(F)F)c1 | -15[16.7 µM] | 1
COCCNC(=O)C[C@@H]1C[C@@H]2c3cc(NC(=O)Nc4ccccc4F)ccc3O[C@@H]2[C@H](CO)O1 | -15[16.7 µM] | -13

(more compounds)
SMILES | Env fusion inh | Yeast UUG start
C[C@H](CO)N1C[C@H](C)[C@@H](CN(C)C(=O)Nc2ccc3c(c2)OCO3)Oc2ccc(NC(=O)CCCCCC(=O)Nc3ccccc3N)cc2CC1=O | 2[16.7 µM] | 10
C[C@@H]1CCCCO[C@H](CN(C)C(=O)Nc2ccc3c(c2)OCO3)[C@@H](C)CN([C@H](C)CO)C(=O)c2cc(NS(C)(=O)=O)ccc2O1 | 15[16.7 µM] | 21
O=C(C[C@H]1C=C[C@@H](NC(=O)CCN2CCCCC2)[C@@H](CO)O1)Nc1ccc(-c2ccccc2)cc1 | -9[16.7 µM] | -1
CO[C@@H]1CN(C)C(=O)c2ccc(NS(C)(=O)=O)cc2OC[C@H](C)N(CC2CCOCC2)C[C@H]1C | 22[16.7 µM] | -1
C[C@H](CO)N1C[C@H](C)[C@@H](CN(C)C(=O)CN2CCOCC2)Oc2ncc(/C=C/c3ccccc3)cc2C1=O | -13[16.7 µM] | -7
C[C@@H]1CN([C@@H](C)CO)C(=O)c2cc(NS(=O)(=O)c3ccc(F)cc3)ccc2O[C@@H](C)CCCCO[C@@H]1CN(C)Cc1ccc2c(c1)OCO2 | -90[16.7 µM] | 35
Cc1ccccc1-c1ccc2c(c1)O[C@@H](CN(C)C)[C@H](C)CN([C@H](C)CO)S2(=O)=O | 2[16.7 µM] | 10
C[C@@H]1CN([C@H](C)CO)C(=O)c2cccc(NS(C)(=O)=O)c2O[C@H]1CN(C)Cc1ccc(-c2ccccc2)cc1 | 21[16.7 µM] | 16
N#C[C@@H]1[C@H](c2ccc(-c3ccccc3)cc2)[C@H](CO)N1C(=O)Cc1ccccc1 | 16[16.7 µM] | 4
C[C@@H]1CCCCO[C@@H](CN(C)Cc2ccc(C(F)(F)F)cc2)[C@H](C)CN([C@H](C)CO)C(=O)c2cc(NC(=O)c3ccccc3)ccc2O1 | 79*[16.7 µM] | 16
Cc1noc(C)c1NC(=O)N[C@H]1C=C[C@H](CC(=O)Nc2ccccc2)O[C@H]1CO | -26[16.7 µM] | 3
O=C(Cc1ccccc1)N[C@H]1C=C[C@H](CC(=O)N2CCCCC2)O[C@H]1CO | -2[16.7 µM] | -30
C[C@H]1CCCCO[C@H](CN(C)S(=O)(=O)c2ccccc2)[C@@H](C)CN([C@@H](C)CO)C(=O)c2cc(NC(=O)NC3CCCCC3)ccc2O1 | -61[16.7 µM] | 3
COc1ccc(NC(=O)N(C)C[C@H]2Oc3c(NC(=O)c4ccc(-c5nccs5)cc4)cccc3C(=O)N([C@H](C)CO)C[C@H]2C)cc1 | -43[16.7 µM] | 4
C[C@@H]1CN([C@@H](C)CO)C(=O)c2cc(-c3cncnc3)cnc2O[C@@H]1CN(C)CC1CCOCC1 | 9[16.7 µM] | 17
C[C@H](O)C#Cc1cnc2c(c1)C(=O)N([C@@H](C)CO)C[C@@H](C)[C@H](CN(C)C(=O)CC1CC1)O2 | -10[16.7 µM] | 1
C/C=C/c1ccc2c(c1)O[C@@H](CN(C)C(=O)Cc1ccncc1)[C@@H](C)CN([C@@H](C)CO)S2(=O)=O | -45[16.7 µM] | 4
COc1ccc(S(=O)(=O)Nc2ccc3c(c2)C(=O)N([C@H](C)CO)C[C@@H](C)[C@@H](CN(C)Cc2ccc(Oc4ccccc4)cc2)O3)cc1 | 34[16.7 µM] | 20
C[C@@H]1CN([C@H](C)CO)C(=O)c2cc(NS(=O)(=O)c3ccc(F)cc3)ccc2O[C@H]1CN(C)C(=O)Nc1ccc(C(F)(F)F)cc1 | -3[16.7 µM] | -4
C[C@@H]1CCCCO[C@H](CN(C)Cc2ccc(C(F)(F)F)cc2)[C@@H](C)CN([C@H](C)CO)C(=O)c2cc(NS(=O)(=O)c3ccccc3)ccc2O1 | -4[16.7 µM] | -2
C[C@@H]1CCCCO[C@@H](CN(C)S(=O)(=O)c2ccccc2)[C@@H](C)CN([C@@H](C)CO)C(=O)c2cc(NC(=O)c3ccncc3)ccc2O1 | 18[16.7 µM] | 20
C[C@@H]1CN([C@@H](C)CO)C(=O)Cc2cc(NC(=O)Nc3ccc(C(F)(F)F)cc3)ccc2O[C@H]1CN(C)C(=O)Nc1cccc2ccccc12 | 0[16.7 µM] | -5
O=C(C[C@H]1CC[C@H](NC(=O)Nc2cc(F)ccc2F)[C@@H](CO)O1)NCc1ccc2c(c1)OCO2 | 18[16.7 µM] | 26
COCC(=O)Nc1ccc2c(c1)C(=O)N(C)[C@H]1CC[C@H](CC(=O)NCC3CC3)O[C@H]1CO2 | 6[16.7 µM] | 6
COC(=O)C[C@H]1CC[C@H]2[C@@H](COc3ccc(NC(=O)Nc4ccccc4C)cc3C(=O)N2C)O1 | 7[16.7 µM] | 1

Quoted from the listing:
Yeast UUG start with CO[C@@H]1CN(C)C(=O)c2ccc(NS(C)(=O)=O)cc2OC[C@H](C)N(CC2CCOCC2)C[C@H]1C reads -1
Env fusion inh with C[C@@H]1CCCCO[C@@H](CN(C)S(=O)(=O)c2ccccc2)[C@@H](C)CN([C@@H](C)CO)C(=O)c2cc(NC(=O)c3ccncc3)ccc2O1 reads 18[16.7 µM]

Other results follow.
SMILES | Env fusion inh | Yeast UUG start
C[C@H]1CCCCO[C@@H](CN(C)C(=O)Nc2ccc(C(F)(F)F)cc2)[C@@H](C)CN([C@@H](C)CO)C(=O)c2cc(NS(=O)(=O)c3cccs3)ccc2O1 | 28[16.7 µM] | 15
O=C(O)C[C@H]1C[C@H]2c3cc(NC(=O)NC4CCCC4)ccc3O[C@H]2[C@@H](CO)O1 | -5[16.7 µM] | -7
C[C@H](CO)N1C[C@H](C)[C@@H](CN(C)C(=O)c2ccccc2)OCCCC[C@H](C)Oc2ccc(NS(=O)(=O)c3cn(C)cn3)cc2C1=O | 17[16.7 µM] | 13
Cc1ccc(S(=O)(=O)N(C)C[C@@H]2Oc3cc(-c4cccc(F)c4)ccc3S(=O)(=O)N([C@@H](C)CO)C[C@@H]2C)cc1 | 31[16.7 µM] | -11
C[C@@H]1CN([C@@H](C)CO)C(=O)Cc2cc(NS(=O)(=O)c3ccc(F)cc3)ccc2O[C@@H]1CN(C)S(=O)(=O)c1ccc(F)cc1 | 9[16.7 µM] | 17
CC(C)NC(=O)N(C)C[C@H]1Oc2ccc(NC(=O)C3CCCCC3)cc2CC(=O)N([C@H](C)CO)C[C@@H]1C | 19[16.7 µM] | 6
C[C@@H]1CN([C@@H](C)CO)C(=O)c2cc(NS(=O)(=O)c3ccc(Cl)cc3)ccc2O[C@@H]1CN(C)Cc1ccncc1 | -13[16.7 µM] | -13
C[C@H](CO)N1C[C@H](C)[C@H](CN(C)S(=O)(=O)c2cccs2)OCCCC[C@H](C)Oc2ccc(NC(=O)Nc3ccc(F)cc3)cc2C1=O | 5[16.7 µM] | -11
CN(C)C(=O)C[C@@H]1C[C@@H]2c3cc(NC(=O)Nc4ccccc4)ccc3O[C@@H]2[C@H](CO)O1 | 2[16.7 µM] | 3
COc1ccc(CN(C)C[C@H]2OCCCC[C@@H](C)Oc3ccc(NC(=O)Nc4c(C)noc4C)cc3C(=O)N([C@@H](C)CO)C[C@@H]2C)cc1 | -11[16.7 µM] | 12
C[C@@H]1CN([C@H](C)CO)C(=O)c2cc(NS(=O)(=O)c3cn(C)cn3)ccc2O[C@@H](C)CCCCO[C@H]1CN(C)S(=O)(=O)c1ccccc1 | 8[16.7 µM] | -16
O=C(C[C@@H]1C[C@H]2c3cc(NC(=O)C4CCC4)ccc3O[C@H]2[C@@H](CO)O1)NCc1cccnc1 | 12[16.7 µM] | -17
COc1ccccc1-c1cn(CC[C@@H]2CC[C@@H](NC(=O)C3CCCCC3)[C@@H](CO)O2)nn1 | -8[16.7 µM] | -12
Cc1ccc(S(=O)(=O)Nc2ccc3c(c2)C(=O)N([C@@H](C)CO)C[C@@H](C)[C@@H](CN(C)S(=O)(=O)c2cn(C)cn2)OCCCC[C@@H](C)O3)cc1 | -7[16.7 µM] | 5
COCC(=O)N1C[C@H](C)[C@H](OC)CN(C)C(=O)c2ccc(NC(=O)c3ccc(F)cc3)cc2OC[C@@H]1C | 5[16.7 µM] | 3
COc1ccccc1S(=O)(=O)N[C@@H]1CC[C@@H](CCn2cc(C3CC3)nn2)O[C@H]1CO | -11[16.7 µM] | 2
C[C@H](CO)N1C[C@H](C)[C@@H](CN(C)Cc2ccc(C(F)(F)F)cc2)Oc2ccc(NC(=O)Cc3cn(C)c4ccccc34)cc2CC1=O | -47[16.7 µM] | 0
C[C@@H]1CN([C@@H](C)CO)C(=O)Cc2cc(NC(=O)CCN3CCOCC3)ccc2O[C@H]1CN(C)CC1CCCCC1 | -20[16.7 µM] | -4

Some of the compounds tested; count on the stated rates, not on these rows.
